CtBP-E1A blk – CtBP/E1A binding inhibition; AlphaScreen GST-E1A/His-CtBP binding, 1536-well; hits give low values; control for the full effect not named in the record; activity change, % (test concentration not listed); 340,000 tested, 0.49% active; in the data active means activity change below about -65%; inconclusive means about -30% to -65%; inactive means above about -30%; further: on the % scale 0 is the no-effect control and ±100 the full control effect; compound concentration not given in the record
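GST-E1A and His-tagged CtBP (125 nM each as 5X stock) were preincubated with pin-transferred compound for 2 h at 37 °C in the dark, then glutathione donor and nickel acceptor beads were added for 1 h before AlphaScreen reading.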
Six1-Eya2 blk – blocks human Six1 binding to Eya2; AlphaScreen GST-Six1/His-Eya2 binding, biochemical; hits give low values; control for the full effect not named in the record; activity change, % (test concentration not listed); 360,000 tested, 0.56% active; in the data active = activity change below about -65%; inconclusive = about -30% to -65%; inactive = above about -30%; further: on the % scale 0 is the no-effect control and ±100 the full control effect; compound concentration not given in the record
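Six1/Eya2 binding was read as AlphaScreen signal after compounds were pinned into GST-Six1 plus His-tagged Eya2 (5X stock 250/500 nM) in pH 8.0 Tris/NaCl/TCEP buffer, beads added, then incubated 1 h, 37 C, dark.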
PINK1 expr mod – modulators of PINK1 expression | 410,000 tested, 0.2% active | PINK1 immunofluorescence, high-content cytometry, 24 h | Potency, µM (titrated, usually from 76.6 µM), for inactives: at the highest dose activation (PINK1 increase), hits mostly activators; active = well fitted activation curve with a large enough effect; inconclusive = small, poorly fitted or top-dose-only effect; inactive = flat fitted curve, though single readings scatter; cell line not stated here;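 further: potency means the concentration at half of the fitted maximal effect; % of control where 0% means no effect; nearly all actives have a fitted effect of over 65% in size; a mitochondrial uncoupler was the plate control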
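Stable cell line, 250 cells/well, 12 h attachment; compounds pinned at 5 concentrations, 24 h; CCCP control. Fixed with nuclear dye, primary antibodies 12 h at 10 degrees C, secondary plus cell stain; laser-scanning cytometer read.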
D2 agonist – agonists of human D2 dopamine receptor (beta-arrestin). DiscoveRx PathHunter D2 beta-arrestin, luminescence, 90 min; 100% = 57 uM dopamine signal. activation, % (concentration not given with the values). 360,000 tested, 0.084% active; in the data active = activation above about 40%; inconclusive = about 15% to 40%; inactive = below about 15%; further: compound concentration not given in the record; the text of the record calls up to 30% inactive
Target sequence (P14416 whole entry, looked up): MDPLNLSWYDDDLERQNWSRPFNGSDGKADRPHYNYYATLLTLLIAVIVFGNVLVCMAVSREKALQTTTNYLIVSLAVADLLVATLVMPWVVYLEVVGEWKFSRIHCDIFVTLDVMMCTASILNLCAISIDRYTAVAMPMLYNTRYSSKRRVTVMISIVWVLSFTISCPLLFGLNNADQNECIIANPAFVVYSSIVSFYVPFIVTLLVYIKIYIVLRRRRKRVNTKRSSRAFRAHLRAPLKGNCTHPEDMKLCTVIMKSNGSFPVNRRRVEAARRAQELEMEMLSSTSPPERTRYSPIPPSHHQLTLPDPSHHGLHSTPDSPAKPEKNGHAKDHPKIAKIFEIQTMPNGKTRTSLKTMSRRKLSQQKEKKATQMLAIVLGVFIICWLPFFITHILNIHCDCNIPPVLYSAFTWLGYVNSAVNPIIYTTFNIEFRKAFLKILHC
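DiscoveRx PathHunter D2 beta-arrestin cells (2,100/well) attached overnight, then compound-stimulated 90 min at 37 C in HBSS/10 mM HEPES/0.1% Tween-20 buffer; beta-galactosidase complementation read by luminescence after 1 h at ambient temperature. Dopamine 57 uM final (EC100) as control.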
TRPML1 agonist – agonists of human TRPML1 channel | Q9GZU1 | TRPML1-expressing cells, Ca2+ dye fluorescence, FDSS; host cell line not named in the record; reference of the full effect not given here | activation, % (test concentration not listed) | 410,000 tested, 0.12% active; in the data active = activation above about 50%; inconclusive = about 30% to 50%; inactive = below about 30%; further: 0% is about no effect; the text of the record puts the active cut at 80%
Target sequence (Q9GZU1 whole entry, looked up): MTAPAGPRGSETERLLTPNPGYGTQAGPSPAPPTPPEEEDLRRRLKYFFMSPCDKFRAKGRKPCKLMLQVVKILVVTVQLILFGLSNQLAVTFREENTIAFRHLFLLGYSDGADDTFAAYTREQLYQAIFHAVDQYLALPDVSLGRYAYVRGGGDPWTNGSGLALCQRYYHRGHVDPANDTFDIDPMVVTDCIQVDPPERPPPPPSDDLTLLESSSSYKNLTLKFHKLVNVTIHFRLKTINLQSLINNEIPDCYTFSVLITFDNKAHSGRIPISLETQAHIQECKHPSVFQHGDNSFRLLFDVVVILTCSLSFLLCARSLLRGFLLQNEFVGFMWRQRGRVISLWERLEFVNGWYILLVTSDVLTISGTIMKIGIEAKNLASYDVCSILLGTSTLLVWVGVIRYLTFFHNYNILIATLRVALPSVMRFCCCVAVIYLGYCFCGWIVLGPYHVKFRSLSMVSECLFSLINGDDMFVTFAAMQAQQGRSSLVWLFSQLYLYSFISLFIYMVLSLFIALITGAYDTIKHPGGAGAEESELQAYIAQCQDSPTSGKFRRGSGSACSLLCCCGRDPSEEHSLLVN
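Cells: TRPML1-DL, 1X Tet inducer, ~16 h at 37 degrees C/5% CO2. Dye: ABD Ca8 no-wash + quencher, 45-90 min RT. Read: 10 s baseline, compound add, 110 s agonist phase; 54-4 EC80 (4uM final), 110 s antagonist phase.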
TRPML1 inh – blocks the human TRPML1 channel; Q9GZU1; TRPML1-inducible cells, Ca2+ dye fluorescence, FDSS; hits give low values; inhibition of EC80 agonist-evoked calcium signal; activity change, negative = inhibition, % (concentration not given with the values); 390,000 tested, 0.02% active; AID 624415; in the data active means activity change below about -50%; inconclusive means about -30% to -50%; inactive means above about -30%;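 further: stimulus is agonist 54-4 at its EC80 concentration; on the % scale 0 is the no-effect control and ±100 the full control effect; compound concentration not given in the record; the text of the record puts the active cut at -80%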
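Calcium fluorescence in TRPML1-DL cells induced overnight with Tet: a 110 s read after compound pin addition, then a 110 s antagonist read after challenge with 54-4 at 4 uM final (EC80).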
The depositor's hits bear a star; ? = inconclusive; . = not tested or not shown; & = joins results of further samples; [ ] = remark or other dose. Rows were taken by chance; 1% or so of the library scored in one or more.

SMILES	CtBP-E1A blk	Six1-Eya2 blk	PINK1 expr mod	D2 agonist	TRPML1 agonist	TRPML1 inh
CCOCCCNC(=O)C1CCN(Cc2ccc(OCc3ccccc3)c(OC)c2)CC1	7	4	0.8%	-3.3	-0.3	19
Nc1n[nH]c2cc(=O)n(-c3cccc(C(F)(F)F)c3)nc12	.	-13	2.8%	-4.5	4.1	20
CCNC(=O)C1CCCN(C(=O)c2ccc(F)c(Cl)c2)CC1 (stereo not drawn)	-3	-1	-0.4%	-3.6	-0.6	.
Cc1ccc(CN(C(=O)COc2ccccc2Cl)c2ccccn2)o1	.	.	0.7%	.	-0.5	-6
CCOC(=O)c1c(N)sc(C(=O)N(CC)CC)c1C	2	-4	-0.6%	1.9	-0.6	-5
O=C(COc1ncnc2cc([N+](=O)[O-])ccc12)N(CCc1ccccc1)Cc1ccccc1	-15	-4	9.4%	-0.6	0.7	11
CC(C)=NNc1ncnc2nc[nH]c12	-21	19	0.0%	1.0	-0.2	-23
COc1ccc(CCNC(=O)c2cccc(C(=O)NCCc3ccc(OC)cc3)n2)cc1	-4	-8	0.6%	0.2	1.7	0
Cc1ccccc1CSCCNC(=O)c1ccccc1	7	-3	3.7%	0.0	0.0	3
Cn1c(SCc2cccc(F)c2)nnc1-c1ccccn1	-5	-2	-0.9%	1.6	0.2	18
CCOC(=O)c1sc2nc(C)nc(N3CCN(S(=O)(=O)c4ccccc4)CC3)c2c1C	11	4	-0.1%	-2.6	-0.3	2
O=C(NCCN=C1NS(=O)(=O)c2ccccc21)c1ccco1	8	5	-6.0%[38.3 µM]	0.5	0.5	0
O=C(N/N=C/C=N/NC(=O)c1ccco1)c1ccco1	-19	-3	1.0%	-2.7	0.9	?
Cn1c(N)c(C(=O)COC(=O)c2ccccc2C(=O)c2ccccc2)c(=O)n(C)c1=O	-11	0	3.1%	-1.7	0.4	29
O=C(c1ccc2c(Cl)c3c(nc2c1)CCCC3)N1CCC(N2CCCCC2)CC1	13	7	0.1%	-2.4	-0.3	-3
COc1ccc(CNC(=O)c2ccc(CS(=O)(=O)c3ccccc3OC)o2)cc1	.	.	2.9%	.	-0.2	-7
COc1ccc(-c2[nH]ncc2-c2ccc(Cl)cc2)c(O)c1	-7	-9	0.3%	1.9	1.7	4
O=C(Cn1cnc2ccccc2c1=O)Nc1nnc(SCc2ccccc2)s1	42	21	.	-0.6	1.0	-6
O=C(Nc1ccc(NC(=O)C2CC2)nc1)c1cccs1	-9	-16	-0.7%	-4.4	-0.9	4
CC1=C(C(=O)N(C)C)C(c2ccc(Cl)c(Cl)c2)NC(=O)N1 (stereo not drawn)	-2	2	-2.1%	-3.2	-0.7	23
O=C(NCc1cccnc1)c1cc(C2CCCCN2C(=O)c2ccccc2)on1 (stereo not drawn)	6	2	1.5%	10.0	-0.5	.
CCCCN(C(=O)c1cccs1)C1CCS(=O)(=O)C1 (stereo not drawn)	4	2	4.6%	1.7	-0.9	-13
Cc1cc(C(=O)CN2C(=O)C(=O)N(Cc3ccccc3)C2=O)c(C)n1Cc1ccc(F)cc1	-10	0	2.6%	9.8	1.1	17
O=C(N[C@H]1CC1c1ccccc1)c1ccc([N+](=O)[O-])cc1 (stereo partly drawn)	3	0	0.6%	0.7	3.8	-6
CCN(CC(=O)Nc1c(F)cccc1F)C(=O)C1CC1C (stereo not drawn)	1	-3	2.6%	-0.4	-0.2	-9
Clc1ccc2nc(CSc3nc4ccccc4o3)cn2c1	3	-1	-0.3%	0.8	2.1	0
CC(C)(C)OC(=O)NCCCCCNC(=O)c1[nH]cnc1C(=O)Nc1ccc(Cl)cc1	-3	-11	3.3%	-0.9	2.6	22
COc1cc2ccccc2cc1C(=O)OCc1nc2ccsc2c(=O)[nH]1	-7	1	5.4%	-1.2	0.6	-7
CCOC(=O)C1CCCN(C(=O)c2cc3ccccc3cc2OC)C1 (stereo not drawn)	4	-2	5.1%	-0.9	0.2	17
COc1ccc(NC(=O)CCN2CCN(c3ccccc3F)CC2)c(OC)c1	10	-3	-0.1%	49*	-0.2	6
COc1ccc(CCNC(=O)c2cc(=O)c3c(C)cc(C)cc3o2)cc1OC	.	.	3.7%	.	-0.1	-9
CCN(CC(=O)NCc1cccs1)C(=O)C(c1ccccc1)c1ccccc1	6	10	0.4%	-1.7	-0.6	-8
COC(=O)c1cc(Br)c(=O)n(Cc2ccc(C(=O)O)cc2)c1	6	7	0.5%	3.3	-0.4	37
Cc1cccc(OCCSc2nc3ccccc3n2CCC(=O)O)c1	.	-2	3.6%	-0.8	.	.
COc1ccc(S(=O)(=O)N2Cc3ccccc3CC2C(=O)Nc2cccc(C)c2)cc1OC (stereo not drawn)	.	.	3.0%	.	-0.5	0
O=C(OCCc1cc2ccccc2c(=O)o1)c1ccccc1C(F)(F)F	12	13	0.3%	-1.2	-0.2	-14
Cc1ccc(NC2Nc3cc(C)nn3S2)c(C)c1 (stereo not drawn)	-7	-2	-1.2%	-3.3	1.1	-2
COc1ccc(N(C)C(=O)c2cn(C)c(=O)c3cc(OC)c(OC)cc23)cc1	-1	3	2.7%&0.5%	-1.5	0.0&0.1	-20&-6
COc1cccc(N2C(=O)C(CC(=O)Nc3ccccc3)N(CCc3sccc3C)C2=O)c1 (stereo not drawn)	.	.	1.2%	.	0.4	17
Fc1ccc(CNc2nc3ccccc3n3nnnc23)cc1	4	-7	?	1.2	1.1	8

2 entries from above, in markdown.
| SMILES | CtBP-E1A blk | Six1-Eya2 blk | PINK1 expr mod | D2 agonist | TRPML1 agonist | TRPML1 inh |
| --- | --- | --- | --- | --- | --- | --- |
| CCN(CC(=O)NCc1cccs1)C(=O)C(c1ccccc1)c1ccccc1 | 6 | 10 | 0.4% | -1.7 | -0.6 | -8 |
| CCN(CC(=O)Nc1c(F)cccc1F)C(=O)C1CC1C (stereo not drawn) | 1 | -3 | 2.6% | -0.4 | -0.2 | -9 |

For convenience, part of the list above:
SMILES	CtBP-E1A blk	Six1-Eya2 blk	PINK1 expr mod	D2 agonist	TRPML1 agonist	TRPML1 inh
Nc1n[nH]c2cc(=O)n(-c3cccc(C(F)(F)F)c3)nc12	.	-13	2.8%	-4.5	4.1	20
CCNC(=O)C1CCCN(C(=O)c2ccc(F)c(Cl)c2)CC1 (stereo not drawn)	-3	-1	-0.4%	-3.6	-0.6	.
Cc1ccc(CN(C(=O)COc2ccccc2Cl)c2ccccn2)o1	.	.	0.7%	.	-0.5	-6
CCOC(=O)c1c(N)sc(C(=O)N(CC)CC)c1C	2	-4	-0.6%	1.9	-0.6	-5
O=C(COc1ncnc2cc([N+](=O)[O-])ccc12)N(CCc1ccccc1)Cc1ccccc1	-15	-4	9.4%	-0.6	0.7	11
CC(C)=NNc1ncnc2nc[nH]c12	-21	19	0.0%	1.0	-0.2	-23
COc1ccc(CCNC(=O)c2cccc(C(=O)NCCc3ccc(OC)cc3)n2)cc1	-4	-8	0.6%	0.2	1.7	0
Cc1ccccc1CSCCNC(=O)c1ccccc1	7	-3	3.7%	0.0	0.0	3
Cn1c(SCc2cccc(F)c2)nnc1-c1ccccn1	-5	-2	-0.9%	1.6	0.2	18
CCOC(=O)c1sc2nc(C)nc(N3CCN(S(=O)(=O)c4ccccc4)CC3)c2c1C	11	4	-0.1%	-2.6	-0.3	2

Further records
SMILES	CtBP-E1A blk	Six1-Eya2 blk	PINK1 expr mod	D2 agonist	TRPML1 agonist	TRPML1 inh
Cc1ccc(/C=N\NC(=O)Cc2cccn2C)o1	-16	-9	0.0%	5.2	-0.3	-15
OCC1(CCOc2ccccc2)CCN(CCCn2cccn2)CC1	17	-11	0.0%	-2.1	-0.7	36
COC(=O)N1C(=O)[C@](c2ccc(OC)cc2)(C(C)C)N1C(=O)OC	3	4	-0.1%	-2.1	-0.6	4
COc1ccccc1C(CCNCc1ccccc1)c1ccc(OC(C)C)cc1 (stereo not drawn)	-17	-6	-3.0%	-21	0.4	-8
COc1ccc(NC(=O)Cn2cnc3sc(C)c(S(=O)(=O)N4CCN(c5ccccc5OC)CC4)c3c2=O)cc1OC	.	.	-0.3%	.	-0.7	6
CNc1c([N+](=O)[O-])cnn1-c1cccc(Cl)n1	-1	4	-0.7%	2.0	1.3	-20
COc1ccc(-n2ccnc(NCc3ccc(Cl)cc3)c2=O)cc1	.	.	1.8%	.	0.3	-3
Nc1nc(Nc2ccccc2)nc2ccccc12	-7	4	1.5%	-2.7	0.5	11
Cc1nc(-c2ccc(Cl)cc2)sc1CCNC(=O)C(=O)Nc1ccccc1C#N	.	.	3.3%	.	2.1	-7
CC(=O)C1=C(C)NC(SCSc2ccccc2)=C(C#N)C1c1cccnc1 (stereo not drawn)	-11	-7	?	0.2	1.0	57
C=CCN1C(=O)C(Cc2ccc(F)cc2)S/C1=N/N=C/c1ccco1 (stereo not drawn)	5	2	13%	-0.2	1.7	-5
CCCCN(C)c1c(C)nc2ccc(C(=O)N3CCN(C(C)=O)CC3)cn12	4	-2	0.4%	-1.2	0.6	34
CCCCCC(=O)N1C[C@@H](O)[C@H](n2cc(C3CC3)nn2)C[C@@H]1c1ccc(OC)cc1	7	3	-0.1%	3.5	-0.7	-22
O=C(N[C@@H]1CCC(=O)N(CC[C@H](Sc2ccccc2)c2ccccc2)CC1)OCc1ccccc1	3	-3	0.4%	0.9	0.9&0.2	-1
CCOc1ccc(C(=O)CCC(=O)Nc2ccncc2)cc1	11	-2	1.5%	2.8	-0.2	-5
CC1CCC(NC(=O)CCC(=O)N2CC(C)Oc3ccccc32)CC1 (stereo not drawn)	-6	-14	1.7%	-7.4	0.7	22
COc1ccc(NC(=O)CN(C)C(=O)c2c(C)nn(Cc3ccc(C)cc3)c2Cl)cc1	.	-5	3.0%	-3.1	-1.4	5
COc1ccc(OCc2cc(C(=O)N3CCSCC3)no2)c(Cl)c1	1	2	3.0%	1.6	1.6	-6
Cc1ccc(CSCC(=O)N(C)CC(=O)Nc2cccc(F)c2)cc1	-5	-4	2.8%	-2.3	0.8	-7
CCN(C(=O)c1ccncc1)c1c(N)n(Cc2ccccc2)c(=O)[nH]c1=O	1	7	1.2%	-2.2	-0.3	-7
CCSc1nnc(NC(=O)c2cccc(OCc3c(C)noc3C)c2)s1	-5	7	1.9%	-0.6	4.1	45
Cc1ccc(NC(=O)CSc2n[nH]c(-c3ccncc3)n2)cc1C	14	-3	-1.5%[38.3 µM]	3.9	2.6	-6
CCOC(=O)CC1C(=O)NCCN1C(=O)c1cccc(OC)c1 (stereo not drawn)	.	2	-0.1%	-1.2	0.9	-2
CC(C1CC1)N(C(=O)c1ccccc1[N+](=O)[O-])c1ccccc1 (stereo not drawn)	-18	0	1.1%	-3.8	0.0	6
O=S(=O)(Nc1ccc(-n2cccc2)cc1)c1ccccc1	-14	-23	-0.2%	-2.3	-0.8	8
Cc1cccc(C)c1Nc1c(-c2ccc(N3CCOCC3)cc2)nc2ncccn12	-3	-7	1.3%&3.4%	-0.2	1.0&1.4	-15&-7
Cc1ccccc1NC(=O)Cc1nc(COC(=O)c2cc(Cl)ccc2O)cs1	7	4	1.9%	0.3	2.1	-9
O=c1c2ccccc2nnn1CSc1nnc(COc2ccc(Cl)cc2)n1Cc1ccco1	-12	-2	0.2%	-1.7	2.2	-8

Source: PubChem
